Compound activity as filed in PubChem BioAssay.
VDR inh: Inhibitors of the vitamin D receptor (VDR): qHTS | Vitamin D3 receptor (Homo sapiens), P11473 | VDR-SRC2-3 peptide fluorescence polarization, 2 h | Potency, µM, without a hit: max response, negative = inhibition, actives largely listed as inhibitors | hit rate 0.93% among 400,000; active means well fitted inhibition curve with a large enough effect; inconclusive means small, poorly fitted or top-dose-only effect, or another doubt; inactive means no such curve, though single readings can be large or run the other way; further: series mostly up to about 120 µM
Target sequence (P11473 whole entry, looked up): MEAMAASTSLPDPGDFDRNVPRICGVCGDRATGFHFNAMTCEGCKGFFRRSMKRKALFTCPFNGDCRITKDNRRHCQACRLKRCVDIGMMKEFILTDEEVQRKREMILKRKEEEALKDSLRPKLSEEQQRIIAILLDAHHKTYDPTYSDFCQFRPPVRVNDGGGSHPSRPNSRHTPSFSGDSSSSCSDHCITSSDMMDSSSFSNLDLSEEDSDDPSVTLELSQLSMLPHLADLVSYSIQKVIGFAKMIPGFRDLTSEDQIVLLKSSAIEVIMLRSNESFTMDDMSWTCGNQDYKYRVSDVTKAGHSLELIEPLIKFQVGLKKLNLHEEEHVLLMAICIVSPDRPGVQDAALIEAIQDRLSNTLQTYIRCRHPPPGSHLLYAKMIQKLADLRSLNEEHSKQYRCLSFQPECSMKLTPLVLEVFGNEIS
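VDR–SRC2-3 interaction, FP format. Cmpds 23 nl via pintool, brief spin, 2 h ambient incubation.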
Active calls of the source: *; u = inconclusive; & = joins results of further samples. On the % scale 0 is the no-effect control and ±100 the full control effect; potency means the concentration at half of the fitted maximal effect.

VDR inh | Molecule
-2% | CN(C(=O)CC(NC(=O)c1ccccc1Cl)c1ccccc1)c1ccccc1 (configuration not stated)
1% | CNC(=S)N1CCN(CCNC2=CC(=O)CC(C)(C)C2)CC1
3% | Cc1ccc(C)c(NC(=O)Cn2cc(S(=O)(=O)Cc3cccc(Cl)c3)c3ccccc32)c1
-13% | O=C(c1ccc([N+](=O)[O-])cc1[N+](=O)[O-])N1CCN(C(=O)C2CCCO2)CC1 (configuration not stated)
17% | COC(=O)CSCC(=O)Nc1nnc(-c2cccc(C)c2)s1
6% | COc1ccc(/C=C/C(=O)N2CCN(c3ccccn3)CC2)cc1
10% | CCCc1nc(-c2cc3ccc(C)cc3[nH]c2=O)no1
-5% | CC1(C)c2[nH]c3ccccc3c2C[C@@H]2C(=O)N(Cc3ccco3)C(=O)N21
-21% | Cc1ccc(CS(=O)Cc2ccc(C(=O)N3CCN(c4ccccc4)CC3)o2)cc1 (configuration not stated)
-4% | NNC(=O)c1ccc2[nH]c3c(c2c1)CCCC3

A draw from above in order of formula weight, high to low.
VDR inh | Molecule
-21% | Cc1ccc(CS(=O)Cc2ccc(C(=O)N3CCN(c4ccccc4)CC3)o2)cc1 (configuration not stated)
6% | COc1ccc(/C=C/C(=O)N2CCN(c3ccccn3)CC2)cc1
10% | CCCc1nc(-c2cc3ccc(C)cc3[nH]c2=O)no1

Next compounds
VDR inh | Molecule
11% | CC1=C(C#N)C(Nc2ccc(Cl)cn2)(C(F)(F)F)C(=O)N1 (configuration not stated)
15% | CNc1nc2c(N)ncnc2n1[C@H]1O[C@@H](CO)[C@H](O)[C@@H]1O
-14% | Cc1ccc(/C=N/n2c(C3CCCCC3)n[nH]c2=S)cc1
-3% | CN(/N=C\c1ccc(O)c(O)c1)c1nc(-c2ccccc2)cc(-c2ccccc2)n1
-17% | COc1ccc(OCC2c3cc(OC)c(OC)cc3CCN2C(=O)C(C)C)cc1 (configuration not stated)
-1% | CCN1C(=O)NC(c2ccc(Cl)cc2)C2=C1CCCC2=O (configuration not stated)
-1% | CC(NC1c2ccccc2-c2ccccc21)c1ccccc1 (configuration not stated)
7% | CC1CC(=O)N(CC(=O)NCc2ccccc2)c2ccccc2S1(=O)=O (configuration not stated)
13% | CC1CCN(S(=O)(=O)c2cccc(C(=O)NC3CCS(=O)(=O)C3)c2)CC1 (configuration not stated)
21% | COc1ccccc1C1C(C(C)=O)=C(O)C(=O)N1CCc1ccccc1 (configuration not stated)
23% | Cc1ccc(S(=O)(=O)NCC(=O)N(CC2CCCO2)C(C(=O)NCC2CCCO2)C(C)C)cc1 (configuration not stated)
2% | OCCNc1ccc(Cl)cc1
0% | O=C(Cc1ccccc1Cl)Nc1cc(S(=O)(=O)N2CCOCC2)ccc1N1CCOCC1
-4% | Cc1ccc(OCC(=O)Nc2ccc(Cl)cc2)c(-n2nc3ccccc3n2)c1
0% | COc1ccccc1CN1CCCC2(CCN(S(C)(=O)=O)CC2)C1
15% | COc1cc2c(cc1OC)C(C)N(S(=O)(=O)c1cccs1)CC2 (configuration not stated)
-2% | CC(=O)C(=[N+]=[N-])C(=O)NCc1ccccc1
-1% | COc1cc([N+](=O)[O-])ccc1NC(=O)Nc1nc2c(s1)CCCC2
-9% | O=S(=O)(O)c1cnccc1Nc1cccc(C(F)(F)F)c1
7% | Cc1ccc(-n2nnc3c(=O)n(Cc4cccc(C)c4)cnc32)cc1
8% | Cn1c(SCC(=O)NC(C)(C)C)nnc1-c1ccc(C(C)(C)C)cc1
4% | CCN1CCN(c2nc(-c3cccnc3)nc3ccccc23)CC1
-3% | Brc1ccc(OCCCN2CCOCC2)cc1
-20% | CCC(=O)N1CCCc2cc(S(=O)(=O)N3CCC(N4CCCCC4)CC3)ccc21
5% | O=C(c1cc(C2CC2)nn1-c1ccccc1)N1CCN(S(=O)(=O)c2cccc(F)c2)CC1
-22% | O=C(NCc1ccccc1OC(F)(F)F)C1CCC(=O)N(CCc2ccccn2)C1 (configuration not stated)
9% | CCOc1ccc(NC(=O)C(C)n2c(=O)cc(C)c3c(C)nn(-c4ccccc4)c32)cc1 (configuration not stated)
4%&-2% | CCCCC/C=C\C/C=C\C/C=C\C=C\[C@@H](O)CCCC(=O)O
-2% | Cc1ccc(CCC(=O)Nc2ccc(C)c(C)c2)o1
4% | O=S1(=O)N=C(SCCO)c2ccccc21
-14% | CCC(C)(C)NC(=O)C(c1cccn1C)N(Cc1ccccc1)C(=O)Cn1nnc2ccccc21 (configuration not stated)
-15% | CC(=O)n1c2c(c3ccccc31)OC(N)=C(C#N)C2c1cccc(Cl)c1Cl (configuration not stated)
-4% | CN(C)c1ccc(/C=N/NC(=O)CSc2ccccn2)cc1
0% | CC(=O)C1=C(O)C(=O)N(Cc2cccnc2)C1c1ccc(C(C)C)cc1 (configuration not stated)
-16% | Cc1cc(C)nc(SCc2nnc(SCC(=O)N3CCCc4ccccc43)o2)n1
-13% | Cn1c(=O)n(C)c2cc(N3CCCCC3)c(NC(=O)c3cccc(Cl)c3)cc21
15% | Cn1c(=O)oc2cc(S(=O)(=O)NC3CCCc4ccccc43)ccc21 (configuration not stated)
-5% | CCOc1ccc(CCNS(=O)(=O)c2ccc(-c3ccc(=O)[nH]n3)o2)cc1OCC
-13% | COc1ccc(C(=O)NCCN2CCCC2)cc1
13% | COc1ccccc1-c1cn[nH]c1-c1ccc(OCc2ccc([N+](=O)[O-])cc2)cc1O
-7% | CC(=O)Nc1nc2ccc(S(=O)(=O)N3CCCCC3)cc2s1
21% | COc1ccc(S(=O)(=O)N2CCOC2CNC(=O)C(=O)NCc2ccco2)cc1 (configuration not stated)
7% | CCOc1ccc(CCNC(=O)C2CCCN(c3nnc(-n4cccc4)s3)C2)cc1OCC (configuration not stated)
0% | COc1ccc(NC(=O)CSc2oc(-c3ccc(F)cc3)nc2S(=O)(=O)c2ccc(C)cc2)c(OC)c1
-7% | O=C(CN(C(=O)Cn1nnc(-c2ccc(F)cc2)n1)c1ccc(F)c(Cl)c1)NCC1CCCO1 (configuration not stated)
-14% | CN(Cc1ccccc1)c1nnc(N)s1
-15% | COc1ccc(-c2nnc(-c3cccnc3)o2)cc1OC
-17% | Cc1ccccc1-c1nc(CN2CCC(C(=O)NCC3CCCO3)CC2)c(C)o1 (configuration not stated)
-8% | Cc1csc(NC(=O)CCN2C(=O)c3ccccc3S2(=O)=O)n1
10% | O=C(NCc1ccco1)c1ccc(CS(=O)Cc2ccc(Cl)cc2)o1 (configuration not stated)

(list continues)
VDR inh | Molecule
1% | COc1ccc([N+](=O)[O-])cc1NC(=O)Nc1cccc(Cl)c1
19% | CN(c1cccnc1)c1ncnc2[nH]ncc12
-3% | COc1cc2c(cc1OC)C(COc1ccc(C(C)C)cc1)N(C(=O)COc1ccccc1)CC2 (configuration not stated)
-4% | O=C(CSc1ccc(Br)cc1)Nc1ccccc1N1CCOCC1
-2% | CCC(C(=O)Nc1cc(C(F)(F)F)ccc1Cl)n1nc(C)c2sc3ccccc3c2c1=O (configuration not stated)
-8% | COc1ccccc1NC(=O)c1ccc(NC(=O)c2cc3c(s2)CCC3)cc1
4% | CC(=O)c1cccc(CN2CCCC(CCC(=O)NCc3ccc(F)c(F)c3)C2)c1 (configuration not stated)
6% | Cc1cc(S(=O)(=O)N2CCN(c3ccccc3C)CC2)ccc1F
-9% | O=C(O)c1cc(NS(=O)(=O)c2ccc(NC3CCCCC3)c([N+](=O)[O-])c2)cc(C(=O)O)c1
-1% | COC(=O)c1ccc(C(C(=O)NC2CCCCC2)N(Cc2ccc(F)cc2)C(=O)Cc2cccs2)cc1 (configuration not stated)
2% | CC(C)CNC(=O)c1cc([N+](=O)[O-])ccc1N1CCCCC1
-2% | Cc1ccc(C)c(N2CCN(C(=O)Cn3ncc4c(=O)oc5ccccc5c43)CC2)c1
14% | CCCN(CCC)CC(O)Cn1c2ccccc2c2ccccc21 (configuration not stated)
-2% | COc1ccc(CNC(=O)C2CCC(CNC(=O)[C@@H]3Cc4ccccc4CN3)CC2)cc1 (some centres not stated)
-17% | Cc1ccc(S(=O)(=O)N2CCOCC2)cc1C(=O)Nc1ccc(-c2cn3ccsc3n2)cc1
3% | O=C(NCc1ccccc1)c1ccc(Cn2c(=O)c3cccn3c3cccnc32)cc1
u | O=C(Oc1ccc(F)cc1C(=O)/C=C/c1cccs1)c1cccc([N+](=O)[O-])c1
1% | CCNC(=S)/N=C(\N)Nc1nc(C)c2cc(C)ccc2n1
0% | CS(=O)(=O)N(CC(=O)NCCc1ccccc1)C1CCCCC1
7% | Cn1ccc2cc(-c3ccc4ncnc(NCc5cccs5)c4c3)ccc21
-1% | C=CCn1c(SC(C)C(=O)NCc2ccc3c(c2)OCO3)nnc1C1CCCCC1 (configuration not stated)
3% | CCOC(=O)Cn1c(N2CCOCC2)nc2c1c(=O)[nH]c(=O)n2C
5% | O=C(NC1CC(=O)N(c2cccc(F)c2)C1)c1cc2ccccc2o1 (configuration not stated)
23% | O=C1c2ccccc2-c2ccc(C(=O)N3CCOCC3)cc21
-8% | Cc1ccc(S(=O)(=O)NNC(=O)c2ccccc2O)cc1
4% | Cc1ccc(-n2cc(C(C)(C)C)[nH]c2=S)cc1
u | O=C(N/N=C/c1ccc(-c2ccccc2[N+](=O)[O-])o1)c1cncc(Br)c1
17% | CCC(C)(C)n1nnnc1C(c1cccs1)N1CCN(Cc2ccccc2)CC1 (configuration not stated)
0% | CC(CCC(=O)O)C1CCC2C3CC[C@H]4CC(O)CC[C@@]4(C)C3CC(O)[C@]12C (some centres not stated)
0% | CC1CCN(C(=S)Nc2ccc3nc4n(c(=O)c3c2)CCCCC4)CC1
9% | COc1ccccc1N(C)S(=O)(=O)c1ccc(C(=O)O)cc1
-18% | CC/C(=N\NC(=O)Cc1ccc(Br)cc1)c1cccs1
-8% | Fc1ccc(-c2nnc(SCc3ncc(-c4ccccc4)o3)n2CC2CCCO2)cc1 (configuration not stated)
8% | C#CCOCCOCCOCCNc1nc(N2CCN(C(=O)[C@H](CCCN=C(N)N)n3cc(C(N)[C@H](C)CC)nn3)CC2)nc(N2CCN(C(=O)[C@H](CC(N)=O)n3cc(C(N)[C@@H](C)CC)nn3)CC2)n1 (some centres not stated)
-14% | CC1CCN(c2ccc3c(c2)S(=O)(=O)c2cccc(C(=O)NCc4ccc(F)cc4)c2C3=O)CC1
6% | O=C(OCc1ccco1)c1ccc2c(c1)N(Cc1cccc(F)c1)C(=O)c1ccccc1S2
24% | Cc1ccc(C(=O)OCC(=O)Nc2sc3c(c2C#N)CCCC3)cc1NC(=O)c1ccco1
-3% | Clc1cccc(-c2noc3ncnc(NC4CCCCC4)c23)c1
16% | CCOC(=O)c1c(C)[nH]c(CCC(=O)NCc2ccc(F)cc2)c1C
-6% | CC(C)[C@H](NC(=O)N1c2ccccc2NC(=O)[C@@H]1C(C)C)C(=O)N[C@@H](C(=O)O)c1ccccc1
-9% | Cc1nnc(-c2ccccc2)nc1N1CCOCC1
6% | Nc1nnc(-c2ccccc2)c(-c2ccccc2)n1
-3% | CCOC(=O)c1c(NC(=O)c2nc3n(n2)C(C(F)F)CC(C)N3)sc2c1CCCC2 (configuration not stated)
1% | Cc1ccccc1NC(=O)CCC(=O)N1CCSc2ccccc21
-7% | COc1ccc(NC(=O)CS(=O)(=O)c2ccccc2)cc1
-9% | O=C(CSc1nc2ccccc2n1-c1ccccc1)NCC1CCCO1 (configuration not stated)
-15% | Cc1cc(NC(=O)CCC(=O)N(C(C(=O)NC(C)(C)C)c2ccccc2Cl)C(C)(C)C)no1 (configuration not stated)
-4% | Cc1cc(-c2ccccc2)n2ncc(C#N)c2n1
-19% | CC1CCCC(NC(=O)COC(=O)[C@@H]2CC(O)CN2S(=O)(=O)c2ccc3c(c2)OCCO3)C1C (some centres not stated)
8% | Cc1cc2c(cc1S(=O)(=O)N(C)CC(=O)Nc1cccc(C#N)c1)OCC(=O)N2

(next part)
VDR inh | Molecule
6% | CN(C)C1(CNC(=O)COc2ccc([N+](=O)[O-])cc2)CCCCC1
5% | O=C1N(Cc2ccccc2)CCCC12CCCN(Cc1ccccc1)C2=O
-9% | O=C(CNc1cc(S(=O)(=O)N2CCCC2)ccc1OCC(F)(F)F)Nc1ccc(SC(F)F)cc1
-1% | CCCCn1c(N)c(N(CCOC)C(=O)c2cc3c(s2)CCCCC3)c(=O)[nH]c1=O
-2% | Cc1ccc(C(=O)OCC(=O)NC(=O)c2cccn2C)cc1

Part of the list above, bar-delimited.
structure | VDR inh
Cc1ccc(C(=O)OCC(=O)Nc2sc3c(c2C#N)CCCC3)cc1NC(=O)c1ccco1 | 24%
Clc1cccc(-c2noc3ncnc(NC4CCCCC4)c23)c1 | -3%
CCOC(=O)c1c(C)[nH]c(CCC(=O)NCc2ccc(F)cc2)c1C | 16%
CC(C)[C@H](NC(=O)N1c2ccccc2NC(=O)[C@@H]1C(C)C)C(=O)N[C@@H](C(=O)O)c1ccccc1 | -6%
Cc1nnc(-c2ccccc2)nc1N1CCOCC1 | -9%
Nc1nnc(-c2ccccc2)c(-c2ccccc2)n1 | 6%
CCOC(=O)c1c(NC(=O)c2nc3n(n2)C(C(F)F)CC(C)N3)sc2c1CCCC2 (configuration not stated) | -3%
Cc1ccccc1NC(=O)CCC(=O)N1CCSc2ccccc21 | 1%
COc1ccc(NC(=O)CS(=O)(=O)c2ccccc2)cc1 | -7%
O=C(CSc1nc2ccccc2n1-c1ccccc1)NCC1CCCO1 (configuration not stated) | -9%
Cc1cc(NC(=O)CCC(=O)N(C(C(=O)NC(C)(C)C)c2ccccc2Cl)C(C)(C)C)no1 (configuration not stated) | -15%
Cc1cc(-c2ccccc2)n2ncc(C#N)c2n1 | -4%
CC1CCCC(NC(=O)COC(=O)[C@@H]2CC(O)CN2S(=O)(=O)c2ccc3c(c2)OCCO3)C1C (some centres not stated) | -19%
Cc1cc2c(cc1S(=O)(=O)N(C)CC(=O)Nc1cccc(C#N)c1)OCC(=O)N2 | 8%
CN(C)C1(CNC(=O)COc2ccc([N+](=O)[O-])cc2)CCCCC1 | 6%
O=C1N(Cc2ccccc2)CCCC12CCCN(Cc1ccccc1)C2=O | 5%

The list is partial; the hit share may differ from the screen's.
